Bioassay records: PubChem BioAssay, National Center for Advancing Translational Sciences (NCATS)
2A firefly – lowers the firefly signal of an FMDV 2A StopGo reporter. HEK cells with a luciferase reporter of 2A StopGo recoding. Potency, µM (doses to about 57.5 µM), without a hit: at the highest dose signal change, negative = less light. hit rate 0.23% among 120,000. AID 1745856; active = well fitted falling curve with a large enough effect; inconclusive = small, poorly fitted or top-dose-only effect; inactive = no such curve, though single readings can be large or run the other way; note: nearly all actives have a fitted effect of over 60% in size; overnight with compound
2A Renilla – FMDV 2A StopGo reporter, Renilla signal; HEK cells with a luciferase reporter of 2A StopGo recoding; Potency, µM (top dose mostly 57.5 µM), for the others: at the highest dose signal change, negative = less light; hit rate 0.32% among 120,000; AID 1745857; active means well fitted falling curve with a large enough effect; inconclusive means small, poorly fitted or top-dose-only effect; inactive means no such curve, though single readings can be large or run the other way; note: nearly all actives have a fitted effect of over 55% in size; overnight with compound
Numbers without * were called inactive; ? = inconclusive; & = joins results of further samples; [ ] = remark or other dose. % is set by controls: 0 for no effect and ±100 for the full control effect; potency is the fitted concentration of half-maximal effect.

SMILES	2A firefly	2A Renilla
O=C(NCCc1ccc(O)cc1)C1CCN(c2nc(Cl)nc3nc[nH]c23)CC1	-1%	-3%
COc1ccc(NC(=O)C2CC(=O)Nc3nc4ccccc4n32)c(OC)c1 (stereo not given)	9%	1%
O=C1C(c2cccc(Br)c2)N(CCc2ccccc2)C(=O)CN1C1CCCCC1 (stereo not given)	-8%&0%	128%&5%[activator]
CCOc1ccc(CCNC(=O)Cn2c(-c3cccs3)cc3cc(F)ccc32)cc1OCC	20%	40%[activator]
Cn1c(=O)c2c(ncn2CC(=O)OCC(=O)NC(c2ccccc2)c2ccccc2)n(C)c1=O	2%	4%
CCOC(=O)c1ccc(Oc2coc3cc(OC(=O)N(C)C)ccc3c2=O)cc1	-15%	-23%
CN(CC(=O)Nc1ccc(Cl)cc1)CC(=O)N1CCC(Cc2ccccc2)CC1	-3%	-4%
CC(NC(=O)c1ccco1)c1nc2ccccc2n1Cc1ccccc1 (stereo not given)	-10%	-11%
CCN(CC)c1nc2ccccc2nc1C(=O)Nc1cc(C)ccc1C	21%	17%
CC(C)Cn1c(Cn2cccn2)nc2cc(NC(=O)COc3ccccc3)ccc21	21%	-4%
O=C(Nc1ccccc1Cl)C1CCN(c2ncnc3nc[nH]c23)CC1	-1%	-9%
Cc1ccsc1CNC(=O)Cc1ccc(Cl)c(Cl)c1	76%[activator]	6%
COc1ccc(-c2ocnc2C(=O)Nc2cccc(Cl)c2)cc1OC	60%[activator]	13%
COc1ccc(OC)c(C(C)NC(=O)Cn2c(=O)cc(C)c3c(C)nn(-c4ccc(C)cc4)c32)c1 (stereo not given)	-12%	-2%
CC(COc1cccc(Cl)c1)CN1CCC(C(O)(c2ccccc2)c2ccccc2)CC1 (stereo not given)	-13%	-3%
O=c1oc2ccccc2cc1-c1nc2ccccc2s1	166%[activator]	13%
Cc1cc(C)c(S(=O)(=O)Nc2ccc3oc(C)nc3c2)c(C)c1	37%[activator]	331%[activator]
CCN(CC)CCNC(=O)Cn1nc(-c2ccccc2)c2ccccc2c1=O	-1%	-11%
Cc1cc(C)cc(C(=O)Nc2ccc(Cl)c(C(F)(F)F)c2)c1	0%	5%
CC(C)Cn1nc(C(=O)Nc2ccc(F)c(Cl)c2)c2ccccc2c1=O	0%	-1%
O=[N+]([O-])/N=C1\NCCN1Cc1ccc(Cl)nc1	-20%	-17%
CCCN(CCC)c1ccc(NC(=O)c2ccccc2Cl)cc1C(=O)O	25%	14%
Cc1cccc(Oc2nc3c(c(=O)n(C)c(=O)n3C)n2Cc2ccccc2F)c1	-2%	0%
CC(NC(=O)CSc1cccs1)C1CCCO1 (stereo not given)	0%	12%
CCN(Cc1ccc2c(c1)OCO2)C(=O)c1nn(-c2ccccc2)c(=O)c2ccccc12	17%	50%[activator]
Cc1ccc2oc(=O)c3cnn(CC(=O)N4CCN(c5ccccc5)CC4)c3c2c1	0%	-20%
Cc1cc(N(CCO)CCO)n2nc(Cc3ccc(Cl)cc3)nc2n1	11%	0%
CCOC(=O)c1[nH]c2ccccc2c1NC(=O)c1ccc(OCC)cc1	0%	-4%
O=C(OCc1ccccc1Cl)c1ccc(-c2nnn(Cc3ccccc3)n2)cc1	-8%	-9%
CC(=O)N1CCCc2cc(S(=O)(=O)N3CCCC(C(=O)NCc4ccccc4)C3)ccc21 (stereo not given)	-26%	-11%
Cc1ccc(Cn2nc(C)c3cc(C(=O)N4CCN(CC(=O)N5CCCC5)CC4)sc32)cc1	12%	5%
O=C(CCCc1nc(-c2cccs2)no1)NCc1cccnc1-n1cncn1	-2%	-12%
COC(=O)COc1ccc2c(C)c(CC(=O)OC)c(=O)oc2c1	-2%	-15%
COC(=O)c1ccc(CNC(=O)c2ccccc2)cc1	0%	1%
Cc1ccc(NS(=O)(=O)c2ccc3c(c2)CC(C)N3C(=O)C2CCC2)cc1Cl (stereo not given)	?	-9%
COc1ccc(CNC(=O)c2ccc3noc(-c4ccccc4)c3c2)cc1OC	-8%	-18%

Some values from the entries so far.
Reading for CC(C)Cn1nc(C(=O)Nc2ccc(F)c(Cl)c2)c2ccccc2c1=O under 2A firefly: 0%
Reading for CC(NC(=O)c1ccco1)c1nc2ccccc2n1Cc1ccccc1 (stereo not given) under 2A Renilla: -11%
Reading for COc1ccc(NC(=O)C2CC(=O)Nc3nc4ccccc4n32)c(OC)c1 (stereo not given) under 2A firefly: 9%
Reading for Cc1ccc(Cn2nc(C)c3cc(C(=O)N4CCN(CC(=O)N5CCCC5)CC4)sc32)cc1 under 2A Renilla: 5%

Further records follow:
SMILES	2A firefly	2A Renilla
CCCCN(CC)C(=O)CSc1nc2n[nH]c(C)c2c(=N)n1-c1cccc(Cl)c1	-24%	-5%
CC(C)n1nc(C(=O)NCc2cc3ccccc3[nH]2)c2ccccc2c1=O	15%	28%
Cc1cccc(Cn2c(SCC(N)=O)nc3c2c(=O)n(C)c(=O)n3C)c1	0%	-5%
Cc1[nH]c2ccccc2c1C(=O)C(=O)Nc1ccc(Oc2ccccc2)cc1	?	6%
COC(=O)[C@H](CC(C)C)NC(=O)N1CCc2[nH]cnc2C1c1ccc(OC)cc1F (stereo not given in full)	36%[activator]	52%[activator]
CCc1ccc(-n2c(SCc3ccccc3Cl)nc3[nH]ncc3c2=O)cc1	-27%	-20%
COc1cc(CC(=O)Nc2ccc3c(c2)NC(=O)C(C)O3)cc(OC)c1OC (stereo not given)	11%	1%
CC12CC3(C)CC(CN)(C1)CC(CCN)(C2)C3	35%[activator]	20%
CCc1ccccc1N1C(=O)N(CC(=O)c2ccc(Cl)cc2)c2ccccc2S1(=O)=O	-13%	10%
O=C(CC1(O)C(=O)N(C/C=C/c2ccccc2)c2ccccc21)c1ccc2c(c1)OCO2 (stereo not given)	7%	77%[activator]
CC(C)(C)c1ccc(C(=O)NN=C2CCCCC2)cc1	0%	48%[activator]
COC(=O)Oc1ccc2c(=O)c(Oc3ccc(-c4ccccc4)cc3)coc2c1	-13%	27%
CC(=O)OCC(=O)[C@H]1CC[C@H]2[C@@H]3CCC4=CC(=O)CC[C@]4(C)[C@H]3CC[C@]12C	-12%	-4%
COc1cccc2cc(-c3nnc(SCC(=O)Nc4ccc5ccccc5c4)n3N)oc12	0%	37%[activator]
CCCOc1ccc(C(=O)Cc2ccccc2)cc1	0%	-10%
Cn1c(=O)c2c(ncn2CC(O)COc2ccc(C#N)cc2)n(C)c1=O (stereo not given)	-1%	-10%
Cc1ccccc1Cn1c2ccccc2c2cnn(CC(=O)NCCc3ccc(Cl)cc3)c(=O)c21	-18%	-12%
CCCCNS(=O)(=O)c1ccc(N2CCCCS2(=O)=O)cc1	-11%	118%[activator]
O=C1CC(c2ccccc2)Cc2[nH]c(=O)c(-c3nc(-c4ccc(F)cc4)cs3)cc21 (stereo not given)	-5%	2%
CN(CCOc1ccccc1)c1ccc([N+](=O)[O-])c2cccnc12	16%	-2%
COc1ccc(OC)c(NC(=O)Nc2nnc(N(C)C3CCCCC3)s2)c1	23%	-10%
Cc1ccc(Cl)cc1-n1ncc2c(Nc3cccc4c3CCCC4)ncnc21	?	?
C[N+]1(CCF)[C@@H]2CC[C@H]1CC(OC(=O)C(O)(c1ccccc1)c1ccccc1)C2 (stereo not given in full)	-14%[11.5 µM]	-12%
Cc1ccc2c(=O)c(C(=O)c3ccc(F)cc3)cn(CC(=O)NCc3ccccc3)c2n1	-5%	4%
CC(C)Nc1nc(-c2ccc3c(c2)CCC(=O)N3)cs1	221%[activator]	34%[activator]
O=C(CC1CCCCC1)Nc1cccc2c1CCCC2	0%	19%
CC(=O)N1CCc2cc(Br)cc(S(=O)(=O)CCC(=O)Nc3ccc(C)cc3Cl)c21	-15%	1%
N#Cc1cccc(NC(=O)NCc2ccccn2)c1	41%[activator]	0%
Cc1nn(-c2ccc(N3CCOCC3)nn2)c(C)c1CCC(=O)NCc1ccccc1F	-1%	-13%
COc1cc(-c2noc(CSc3nc(-c4ccccc4)cc(=O)[nH]3)n2)cc(OC)c1OC	-20%	-14%
N#Cc1cccc(NC(=O)c2ccc3c(c2)NC(=O)CS3)c1	50%[activator]	2%
COc1ccc(C(=O)OCCCN(C)C2CN(Cc3cn(Cc4ccccc4Cl)nn3)S(=O)(=O)C2)cc1OC (stereo not given)	47%[activator]	26%
COc1ccc2c(c1)c1c(c(=O)n(-c3ccccc3C)c(=O)n1CC(=O)Nc1c(C)cccc1C)n2C	-7%	-8%
CCOc1ccc(S(=O)(=O)N2CCCC2c2ccc(F)cc2)cc1 (stereo not given)	7%	25%
CCSc1ncc2c(=O)n(CC(=O)Nc3ccc(Br)cc3)cnc2n1	-5%	-12%
CCCCCCS(=O)(=O)CCO	12%	-4%
CCc1nn(CC(=O)NCC(C)c2ccccc2)c(=O)c2cc3c(OC)cccc3n12 (stereo not given)	0%	-1%
CCc1ccccc1NC(=O)N1CCN(c2nnc(C)c3c(C)n(-c4ccccc4)nc23)CC1	-11%	-14%
O=C(Nc1cccc(I)c1)c1ccc2c3c(cccc13)CC2	82%[activator]	-3%
CCOc1ccc(CNC(=O)C2CCN(C(=O)c3ccc(-n4ccc5ccccc54)s3)CC2)cc1	16%	-23%
COC(=O)c1ccccc1OS(=O)(=O)c1ccc2c(c1)CCCC2	-27%	-8%[1.06 µM]
CCOc1ccc(CNC(=O)c2noc(C)c2Cn2nc(C)cc2C)cc1	-3%	-6%
Cc1nn(C(C)C(=O)NCc2ccc(OC(C)C)cc2)c(=O)c2c1sc1ccccc12 (stereo not given)	12%	1%
COc1cccc(Cn2ccn(-c3ccc(F)cc3)c(=O)c2=O)c1	?	?
CC(=O)N1CCc2c(sc3c2c(=O)n(-c2cc(Cl)ccc2C)c(=O)n3C)C1	51%[activator]	58%[activator]
Cc1cc(C)cc(-n2nnnc2SCC(=O)N(C)c2ccccc2C(=O)NCc2ccco2)c1	-6%	0%
COC(=O)c1c(NC(=O)/C(C#N)=C/c2ccccc2)sc2c1CCC2	-23%	-17%
CCOc1ccc2cc(C(=O)O)[nH]c2c1	54%[activator]	21%
CCN1CCN(C(=O)c2ccc3c(c2)N(Cc2ccc(F)cc2)C(=O)c2ccccc2S3(=O)=O)CC1	22%	33%[activator]
Clc1ccc(N=Cc2ccc(C=Nc3ccc(Cl)cc3)cc2)cc1	0%	17%
COc1cccc(C2C(C(=O)Nc3ccc(Cl)cc3)=C(C)Nc3c(C(=O)Nc4ccccc4)cnn32)c1OC (stereo not given)	-16%	-22%
COc1ccc(C)cc1NC(=O)/C=C/c1ccc2ccccc2n1	4%	?
O=C(N/N=C\c1cc(Br)cs1)c1ccc(Cl)cc1	55%[activator]	11%
CC12CC3(C)CC(N)(C1)CC(C(=O)O)(C2)C3	-2%	-5%
Cc1cc2c(cc1S(=O)(=O)CCC(=O)NCc1ccccc1)OCC(=O)N2	-5%	-1%
COC(C)CC(=O)NCc1cccc(C#N)c1 (stereo not given)	-11%	-6%
CC(C)(O)C#Cc1ccc(C(=O)NCC(c2ccccc2)c2ccccc2)cc1	8%	10%
O=C(NCCc1nc(-c2ccccc2)no1)c1cc(=O)c2cc(Cl)ccc2o1	-11%	-6%
O=C(COC(=O)Cn1cnc2ccccc21)Nc1ccc(Cl)c(C(F)(F)F)c1	-12%	-10%
Cc1cccn2c(=O)c3cc(C(=O)N4CCOCC4)sc3nc12	52%[activator]	-6%

Entries above that contain a thiophene ring, fused or not (eleven):
SMILES	2A firefly	2A Renilla
CCOc1ccc(CCNC(=O)Cn2c(-c3cccs3)cc3cc(F)ccc32)cc1OCC	20%	40%[activator]
Cc1ccsc1CNC(=O)Cc1ccc(Cl)c(Cl)c1	76%[activator]	6%
CC(NC(=O)CSc1cccs1)C1CCCO1 (stereo not given)	0%	12%
Cc1ccc(Cn2nc(C)c3cc(C(=O)N4CCN(CC(=O)N5CCCC5)CC4)sc32)cc1	12%	5%
O=C(CCCc1nc(-c2cccs2)no1)NCc1cccnc1-n1cncn1	-2%	-12%
CCOc1ccc(CNC(=O)C2CCN(C(=O)c3ccc(-n4ccc5ccccc54)s3)CC2)cc1	16%	-23%
Cc1nn(C(C)C(=O)NCc2ccc(OC(C)C)cc2)c(=O)c2c1sc1ccccc12 (stereo not given)	12%	1%
CC(=O)N1CCc2c(sc3c2c(=O)n(-c2cc(Cl)ccc2C)c(=O)n3C)C1	51%[activator]	58%[activator]
COC(=O)c1c(NC(=O)/C(C#N)=C/c2ccccc2)sc2c1CCC2	-23%	-17%
O=C(N/N=C\c1cc(Br)cs1)c1ccc(Cl)cc1	55%[activator]	11%
Cc1cccn2c(=O)c3cc(C(=O)N4CCOCC4)sc3nc12	52%[activator]	-6%

Next part:
SMILES	2A firefly	2A Renilla
CCOc1ccc(-c2cnc(NCc3ccc(C(F)(F)F)cc3)n2C)cc1	-15%	-16%
CCOC(=O)c1cnn(-c2ccc(C(=O)Nc3cccc(C(C)=O)c3)cc2)c1N	1%	-13%
Cc1cc(C(=O)NCCc2ccccc2)c2ccccc2n1	109%[activator]	6%
CC(C)(C)c1ccc(CNCCC(=O)O)cc1	5%	-14%
Clc1cccc(NN=C2c3ccccc3-c3ccccc32)c1	10%	4%
CCc1ccc(NC(=O)c2cc3c(=O)n(Cc4cccs4)ccc3nc2C)cc1	18%	13%
CCOc1ccc(S(=O)(=O)Nc2ccc(N3CCNCC3)c(C(=O)NCC(C)C)c2)cc1	-29%	-29%
Cc1ccccc1OCCN(C)C(=O)c1cc2ccccc2[nH]1	0%	22%
COc1cc(OC)c(OC)cc1CNC(=O)c1nn(Cc2ccccc2)c(=O)c2ccccc12	9%	4%

Part of the list above, as a markdown table.
| smiles | 2A firefly | 2A Renilla |
| --- | --- | --- |
| Clc1cccc(NN=C2c3ccccc3-c3ccccc32)c1 | 10% | 4% |
| COc1cc(OC)c(OC)cc1CNC(=O)c1nn(Cc2ccccc2)c(=O)c2ccccc12 | 9% | 4% |

Some of the compounds tested; the hit share may differ from the screen's.
